Source: PubChem (National Center for Advancing Translational Sciences (NCATS))
Cruzain inh Det: inhibitors of Trypanosoma cruzi cruzain with detergent | P25779 | purified cruzain, Z-FR-AMC fluorescence, 0.01% Triton | Potency, µM, without a hit: max response, negative = inhibition, hits mostly inhibitors | hit rate 0.43% among 200,000; active = well fitted curve in the direction sought with a large enough effect; inconclusive = small, poorly fitted or top-dose-only effect, or another doubt; inactive = no such curve, though single readings can be large; an effect the other way counts as inactive or inconclusive;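 note: plate controls were neutral wells for no effect and buffer without enzyme for full effect; nearly all actives have a fitted effect of over 40% in size; top concentration of the series not given in the record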
Target sequence (P25779 123-467 limits assumed): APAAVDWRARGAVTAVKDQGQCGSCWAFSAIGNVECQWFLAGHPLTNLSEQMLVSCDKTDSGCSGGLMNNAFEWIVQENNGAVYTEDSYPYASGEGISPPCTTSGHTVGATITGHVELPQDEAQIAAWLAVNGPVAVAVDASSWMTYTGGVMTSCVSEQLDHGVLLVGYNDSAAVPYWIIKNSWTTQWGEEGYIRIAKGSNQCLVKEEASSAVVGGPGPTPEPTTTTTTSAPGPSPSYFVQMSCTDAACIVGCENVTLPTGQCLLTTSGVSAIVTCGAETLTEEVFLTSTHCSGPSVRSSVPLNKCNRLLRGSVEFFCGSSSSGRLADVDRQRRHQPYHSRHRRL
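Enzyme 1.5 nM, Z-FR-AMC 2 uM, NaOAc 100 mM pH 5.5, DTT 5 mM, Triton X-100 0.01%; 15 min RT compound preincubation; kinetic ex360/em450, 60 s delta.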
RE007 growth inh: less growth of the S. pombe RE007 Vpr strain | S. pombe RE007 Vpr strain, BacTiter-Glo ATP luminescence, 24 h; control for the full effect not named in the record | Potency, µM (series often up to 92.2 µM), for the others: at the top dose activity change, negative = less growth | hit rate 0.21% among 360,000 | AID 651644; active = well fitted falling curve with a large enough effect; inconclusive = small, poorly fitted or top-dose-only effect; inactive = no such curve, though single readings can be large or run the other way;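 note: % is set by controls: 0 for no effect and ±100 for the full control effect; nearly all actives have a fitted effect of over 50% in size; the assay follows cell death caused by Vpr and the record does not say whether a fall means rescue or toxicity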
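Fission yeast RE007 carrying one integrated HIV-1 vpr copy, seeded at OD 0.01 in PMG+AL medium with 23 nL pinned compound. Grown 24 h at 30 degrees; viability read by BacTiter-Glo luminescence after 5 min.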
NS1 function inh: blocks influenza NS1 protein function | S. cerevisiae slowed by influenza A NS1, growth recovery by OD600 | Potency, µM (top dose mostly 46.1 µM), for the others: at the highest dose activity, positive = more growth | hit rate 0.4% among 270,000 | AID 2326; note: actives are rising curves; nearly all actives have a fitted effect of over 50% in size
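OD600 was taken as the measure of yeast growth restored by compound in an NS1-expressing S. cerevisiae strain. Cells had been washed out of glucose medium and diluted 1:100 into galactose -URA medium, pH 6.0.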
SARS PLpro yeast: inhibitors of SARS-CoV papain-like protease in yeast; S. cerevisiae expressing SARS-CoV PLpro, growth rescue; control for the full effect not named in the record; hit rate 0.19% among 330,000; Potency, µM (highest dose often 32.9 µM), for inactives: top-dose activity, positive = growth rescue; AID 485353; note: 0% is about no effect; nearly all actives have a fitted effect of over 55% in size; growth read by luminescence after 48 h
MARV entry inh: blocks Marburg virus binding to or entry into cells; Marburg virus pseudotyped entry inhibition, cell reporter; control for the full effect not named in the record; about a third of the inactives were read at about 46 µM; Potency, µM (titrated, usually from 37.8 µM), for the others: at the highest dose activity change, negative = inhibition, usual class: inhibitors; hit rate 1.8% among 300,000; active = well fitted inhibition curve with a large enough effect; inconclusive = small, poorly fitted or top-dose-only effect, or effect the other way; inactive = flat fitted curve, though single readings scatter; tested in HEK293 cells; about a fifth of its hits are not listed in these tables; note: % is set by controls: 0 for no effect and ±100 for the full control effect; luciferase read-out
StopGo reporter: lowers the luciferase signal of an FMDV 2A StopGo reporter. human cells with a luciferase reporter of 2A StopGo recoding; control for the full effect not named in the record. Potency, µM (doses to about 57.9 µM), inactives show at the highest dose signal change, negative = less light. hit rate 1.2% among 410,000; active = well fitted falling curve with a large enough effect; inconclusive = small, poorly fitted or top-dose-only effect; inactive = no such curve, though single readings can be large or run the other way; tested in HEK293T cells; note: % is set by controls: 0 for no effect and ±100 for the full control effect; nearly all actives have a fitted effect of over 45% in size; luciferase light after 4 h
Cruzain inh noDet: blocks cruzain activity in detergent-free assay | P25779 | purified cruzain, Z-FR-AMC fluorescence, no detergent | Potency, µM, for the others: max response, negative = inhibition, actives largely listed as inhibitors | hit rate 2.3% among 200,000 | AID 1476; active = well fitted curve in the direction sought with a large enough effect; inconclusive = small, poorly fitted or top-dose-only effect, or another doubt; inactive = no such curve, though single readings can be large; an effect the other way counts as inactive or inconclusive;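 note: plate controls were enzyme without inhibitor for no effect and buffer without enzyme for full effect; nearly all actives have a fitted effect of over 40% in size; top concentration of the series not given in the record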
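Purified cruzain at 1.5 nM, pre-incubated 15 min with compound at room temperature in 100 mM sodium acetate pH 5.5, 5 mM DTT, 0.00005% Triton X-100. Reaction started with 2 uM Z-FR-AMC; AMC fluorescence increase over 60 s gives rate.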
Lassa entry inh: blocks Lassa virus binding to or entry into cells; Lassa virus pseudotype entry inhibition, cell reporter; control for the full effect not named in the record; Potency, µM (doses to about 37.9 µM), inactives show top-dose activity change, negative = inhibition, usual class: inhibitors; hit rate 1.2% among 300,000; active means well fitted inhibition curve with a large enough effect; inconclusive means small, poorly fitted or top-dose-only effect, or effect the other way; inactive means flat fitted curve, though single readings scatter; tested in HEK293 cells; note: % is set by controls: 0 for no effect and ±100 for the full control effect; nearly all actives have a fitted effect of over 50% in size; luciferase read-out
The depositor's hits bear a star; ? = inconclusive; nt = not tested or not shown; & = joins results of further samples; [ ] = dose if it differs, or a comment. Unless noted, calls come from the whole dose curve; as a rule, active means well fitted rising curve with a large enough effect; inconclusive means small, poorly fitted or top-dose-only effect; inactive means no such curve, though single readings can be large or run the other way. Potency is the fitted concentration of half-maximal effect.

SMILES	Cruzain inh Det	RE007 growth inh	NS1 function inh	SARS PLpro yeast	MARV entry inh	StopGo reporter	Cruzain inh noDet	Lassa entry inh
O=C(CC1C(=O)NCCN1Cc1ccoc1)NCc1cccc(OC(F)(F)F)c1 (configuration not stated)	nt	-4%	4%	-1%	nt	-5%	nt	nt
CCN(CC)c1ccc(/C=N/NC(=O)c2c(-c3ccccc3)noc2C)cc1	nt	1%	-8%	3%	0%[46.1 µM]	-17%	nt	?
O=C1CCCc2cc3c(ccc4ccccc43)cc21	nt	-14%	nt	nt	?	9%	nt	-3%[46.1 µM]
C/C(N=Nc1nc2ccccc2s1)=N\Nc1ccccc1O	nt	?	-18%	-13%	nt	-17%	nt	nt
Oc1ccc(Br)cc1-c1n[nH]c(=S)n1Cc1ccccc1	nt	7%	-12%	-2%	7%[46.1 µM]	-10%	nt	3%[46.1 µM]
N#Cc1c(N)nc(SC2CCCCC2=O)c(C#N)c1-c1ccco1 (configuration not stated)	nt	-11%	-3%	nt	-2%	-7%	nt	-6%
COC(=O)c1cc(S(=O)(=O)NC2CCN(Cc3ccccc3)CC2)cn1C	-4.2%	10%	2%	0%	nt	-20%	-1%	11%
O=C(Nc1ccccn1)c1ccc2c(c1)OCCO2	nt	-16%	nt	-9%	?	?	nt	?
CCN(Cc1ccccc1)C(=O)c1ccc(CNS(=O)(=O)c2ccc(C)cc2)cc1	-4.1%	?	-14%	11%	-15%	-33%	8%	?
CCc1nnc(NC(=O)c2n[nH]c(=O)c3ccccc23)s1	nt	7%	0%	-1%	-3%	0%	nt	nt
Cc1cccc(C(=O)N/N=C/c2ccncc2)c1	0.3%	-3%[3.69 µM]	-8%	5%	-7%	9%	4%	1%
O=C(Nc1nnc(-c2ccc(F)cc2)o1)c1cccc([N+](=O)[O-])c1	nt	-8%	0%	-2%	?	19%	nt	-25%
FC(F)(F)c1ccc(CN2CCCCCC2)cc1	6.7%	-9%	-3%	-12%	-14%	nt	-7%	25%
CCOC(=O)Cc1csc(NC(=O)COc2ccc(N(C)S(=O)(=O)c3ccc(C)cc3)cc2)n1	-5.4%	-15%	14%	-4%	?	18µM*	-7%	-21%
O=C(CSc1ncccn1)NC(=O)c1ccccc1	nt	25%	nt	0%	8%[46.1 µM]	2%	nt	nt
Cc1cccc(Cn2c(N3CCN(C)CC3)nc3c2c(=O)n(C)c(=O)n3C)c1	nt	3%	-3%	4%	-13%	-17%	nt	6%
CCOC(=O)N1CCN(C(=O)/C(=C\c2cccs2)NC(=O)c2cccs2)CC1	nt	6%	-1%	1%	0%	6%	nt	0%
CCN(Cc1ccccc1)C(=O)c1oc2ccc(C)cc2c1C	nt	8%	-70%	-12%	?	20%	nt	-11%
Cc1nnc(SCC(=O)N2CCN(S(=O)(=O)c3ccccc3)CC2)s1	nt	-9%	-3%	4%	2%	-8%	nt	4%
CC(C)(C)c1ccc(-c2n[nH]c(=S)n2-c2ccccc2)cc1	nt	-14%	16%	-4%	-3%	-12%	nt	1%
CC1CCN(c2nc3nonc3nc2N2CCC(C)CC2)CC1	-4.8%	6%	5%	5%	4%	13%	-7%	10%
O=C1NC[C@@H](Cc2cccc3ccccc23)N(CC2(c3ccccc3)CC2)C1=O	nt	10%	-9%	1%	nt	0%	nt	nt
COCc1cc(C)nc(SCC[N+](C)(C)CC(=O)Nc2ccccc2)c1C#N	nt	2%	nt	3%	-2%[46.1 µM]	-5%	nt	6%
O=C(Cn1c(=O)n(-c2ccccc2)c(=O)c2sc3ccccc3c21)NC1CCCC1	5.8%	nt	nt	nt	14%[46.1 µM]	-19%	-1%	30%[46.1 µM]
O=C(NCCCN1CCN(c2ccc(F)cc2)CC1)c1cc2c(s1)-c1ccccc1OC2	?	nt	nt	nt	?	?	?	nt
FC(F)(F)c1cc(CO[C@H]2CCCN[C@H]2c2ccccc2)cc(C(F)(F)F)c1	-6.4%&2.6%	nt	-37%	nt	14µM*	0%	8%&6%	nt
CCOC(=O)N1CCC(N(CCN(C)C)C(=S)Nc2ccccc2Cl)CC1	nt	-5%	nt	0%	9%[46.1 µM]	-2%	nt	-18%[46.1 µM]
Cc1ccc(-c2cn3cccnc3n2)cc1NC(=O)c1cccs1	-8.5%	-13%	-11%	-22%	?	-7%	?	8%
CCOC(=O)c1ccoc1CN1CCN(S(=O)(=O)c2ccc(C)c(C)c2)CC1	nt	0%	nt	-10%	-23%	-23%	nt	-26%
CN(c1nnc(NC(=O)Nc2ccccc2C(F)(F)F)s1)C1CCCCC1	-4.8%	nt	nt	nt	27%[46.1 µM]	16%	-5%	0%[46.1 µM]
CN(CCN1CCOCC1)Cc1nc(-c2ccccc2)no1	nt	-7%	1%	0%	nt	6%	nt	nt
Cc1cc(=O)c(C(=O)OC(C)C(=O)NC(N)=O)nn1-c1ccc(Cl)cc1 (configuration not stated)	nt	19%	2%	5%	2%[46.1 µM]	9%	nt	2%
CC(C)c1ccc(C2=C(O)c3ccccc3C(=O)C2=O)cc1	-5.7%	?	-16%	-92%	?	?	-1%	15%
CCc1ccc(CN2CCC(C(=O)Nc3ccc(-n4nc(C)cc4C)cc3)CC2)o1	nt	1%	3%	1%	nt	-27%	nt	nt
O=C1NC(=O)C(=CCc2ccccc2)C(=O)N1	nt	-11%	nt	nt	?	-13%	nt	6%
COc1ccc(CCN2CC(C(=O)N(C)CC(=O)Nc3ccc(Cl)c(C(F)(F)F)c3)CC2=O)cc1OC (configuration not stated)	nt	-7%	nt	-2%	?	-20%	nt	?
COc1cc(NC(=O)CN2C(=O)C(c3ccccc3)=NC23CCCCCC3)cc(OC)c1	-6.4%	11%	-14%	6%	?	?	-2%	-14%
CCCNC(=O)c1cnc2sc(N3CCCCCC3)nn2c1=O	-7.7%	nt	nt	nt	nt	6%	-4%	25%[46.1 µM]
CCc1cc2ccc(C)cc2nc1SCC(=O)Nc1cc(OC)c(OC)cc1C(=O)O	-16%	-4%	12%	6%	10%	-7%	5%	12%
COc1cc2ccccc2cc1C(=O)Nc1cc(C)ccn1	nt	-2%	-28%	-10%	?	3%	nt	-4%[46.1 µM]
Fc1ccccc1N1CCN(CC2CCCCC2)CC1	nt	-11%	17%	5%	nt	-9%	nt	nt
COc1ccc(S(=O)(=O)N2CCN(c3ncccn3)CC2)cc1[N+](=O)[O-]	nt	26%	-1%	0%	nt	-14%	nt	nt
COc1cc(CCC(=O)Oc2ccc(C(C)=O)cc2)cc(OC)c1OC	-1.6%	0%	-9%	20%	-5%	-5%	0%	3%
Clc1ccc2c(c1)c1ccccc1n2CN1CCOCC1	-5.9%	-18%	-62%	-10%	-1%	-8%	7%	8%
COc1ccc(OC)c(NC(=O)COC(=O)CCS(=O)(=O)c2ccc(Cl)cc2)c1	nt	10%	nt	-2%	?	-13%	nt	1%
Cc1ncsc1C(=O)O	nt	-7%	0%	0%	2%[46.1 µM]	-7%	nt	?
C=CCNC(=O)CNS(=O)(=O)c1ccc(F)cc1	1.2%	-18%	23%	3%	2%	nt	-6%	0%
O=C(O)CSc1ccccc1C(=O)O	2.4%&3.6%	13%	1%&2%	-1%	0%&0%&0%	5%	10%&-3%	12%
COc1ccc(-c2cc(C(F)(F)F)nc(SCC(=O)N(C)Cc3ccccc3)n2)cc1OC	-29%	nt	nt	nt	?	-24%	?	-22%[46.1 µM]
CN(C)C=NC(=O)c1ccc(N2CCN(c3ncc(C(F)(F)F)cc3Cl)CC2)cc1	-12%	-1%	-1%	nt	-28%	-12%	?	?
Cc1ccc(NC(=O)c2nn(C34CC5CC(CC(C5)C3)C4)cc2[N+](=O)[O-])cc1	-3.0%	-6%	21%	-2%	?	57%[activator]	?	-18%
O=S(=O)(c1ccc(Cl)cc1)N1CCN(c2nc(-c3cccs3)nc3ccccc23)CC1	-7.0%	0%&-5%	11%	12%	-29%&10%&10%&10%&10%	0%	10µM*	-2%&5%
CC(=O)c1ccc(N2CCN(S(=O)(=O)c3ccccc3)CC2)c(F)c1	nt	4%	-9%	0%	19%[46.1 µM]	-25%	nt	1%
CCOc1ccccc1NC(=O)COC(=O)CN1C(=O)NC(C)(C)C1=O	nt	-3%	nt	1%	-18%	-18%	nt	2%
Cc1c(Cl)ccc2c(C(=O)NCCN3CCCCC3)cc(-c3ccccn3)nc12	nt	-15%	1%	-2%	?	-27%	nt	3%
COc1ccc(-c2c(NC(=O)c3ccco3)oc3c(C)cccc3c2=O)cc1	nt	2%	-38%	0%	-1%[46.1 µM]	-11%	nt	-17%[46.1 µM]
COc1cccc(CNC(=O)Cn2c(=O)n(CCC(=O)N3CCCCC3)c(=O)c3sccc32)c1	nt	1%	4%	-1%	nt	-27%	nt	nt
COc1cc(NC(=O)Cn2nnnc2-c2ccccc2F)cc(OC)c1OC	-1.3%	nt	nt	nt	-2%[46.1 µM]	-10%	-5%	14%[46.1 µM]
O=C1Nc2ccc(Br)cc2C(c2ccccc2Cl)=NC1O (configuration not stated)	nt	5%	-1%	-2%	nt	-16%	nt	nt
O=c1cc(CSc2ncn[nH]2)[nH]c2c(Cl)cccc12	0.0%	nt	nt	nt	nt	-4%	-18%	15%[46.1 µM]
Next part.
SMILES	Cruzain inh Det	RE007 growth inh	NS1 function inh	SARS PLpro yeast	MARV entry inh	StopGo reporter	Cruzain inh noDet	Lassa entry inh
CCOc1ccc(C2/C(=C(\O)c3ccc4c(c3)OCCO4)C(=O)C(=O)N2Cc2cccnc2)cc1OCC (configuration not stated)	nt	?	-2%	7%	-12%[46.1 µM]	-17%	nt	2%[46.1 µM]
COc1ccccc1N1CC(C(=O)Nc2ccc(S(=O)(=O)N3CCOCC3)cc2)CC1=O (configuration not stated)	2.0%	3%	-4%	7%	-27%[46.1 µM]	-3%	16%	3%
COc1ccc(CNc2nc(-c3ccc(Cl)cc3)nn2S(=O)(=O)c2ccc(C)cc2)cc1	-0.4%	nt	nt	nt	?	-26%	-5%	-6%[46.1 µM]
CCc1ccc(OCCSc2nc3ccccc3n2CC(=O)N2CCCCC2)cc1	-4.7%	nt	nt	nt	-6%[46.1 µM]	-13%	14%	-19%[46.1 µM]
O=C(CCn1c(=O)oc2ccccc21)NCCCN1CCOCC1	nt	3%	19%	-1%	24%[46.1 µM]	18%	nt	-7%[46.1 µM]
